# BJeLR viability: BJeLR cell viability loss. BJeLR (HRASV12) viability, CellTiter-Glo ATP luminescence, 48 h; reference of the scale not given here. inhibition, % (no concentration beside the values). 300,000 tested, 0.17% active. AID 1554;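 active = replicate mean above 50%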;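 also: 50 nL library stock added to about 25 µL; numbers are from one replicate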
# Autofluor counter: counter-screen for toxin protease inhibitors: compound fluorescence; fluorescence intensity (test concentration not listed); compound autofluorescence counterscreen, microsphere flow cytometry; active compounds read high; 360,000 tested, 3.1% active; AID 624483;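 active = at least 3 SD above the mean of all compounds, about 16000 in these data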;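 also: 100 nL of 1 mM stock went into each well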
# Sa ugtP lethal: growth inhibition of S. aureus ugtP deletion strain. S. aureus RN4220 ugtP deletion, OD600 growth, 16 h; some inactives read as strong as hits. growth inhibition, % (no concentration beside the values). 330,000 tested, 0.54% active. AID 1259309;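 active = z-score under -3 and OD600 up to 0.15 on both plates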;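 also: plate controls were untreated wells for no effect and antibiotic for full effect; wells of about 80 µL received 100 nL stock; the first replicate is given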
# PrP UTR inh: inhibition of PrP 5' UTR reporter expression; cell-based PrP 5' UTR mRNA reporter, plate reader; inhibition, % (no concentration beside the values); 340,000 tested, 0.35% active; AID 488862;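 active = every replicate at 50% or more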;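 also: 0 = median of the neutral control wells; tested in H4 reporter cells; numbers are from one replicate; inactives centre near -14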
# Sa RN4220 lethal: S. aureus RN4220 growth inhibition. AID 1259311. OD600, 16 h. 330,000 tested, 0.33% active. inhibition, % (concentration not given with the values);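 active = z-score of -3 or lower and OD600 up to 0.18 on both plates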;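 also: plate controls were untreated cells for no effect and reference antibiotic for full effect; stock transfer was 100 nL into about 80 µL; one replicate is shown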
# Mtb hypoxia inh: inhibitors of hypoxia-regulated fluorescent reporter in Mycobacterium tuberculosis; M. tuberculosis hypoxia-regulated fluorescent reporter, fluorescence; AID 1159583; 300,000 tested, 0.1% active; fluorescence inhibition, % (concentration not given with the values);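 active = 35 to 45% if threefold the growth effect, above 45% if 1.5-fold the growth effect; inactive = the rest, general growth blockers included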;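 also: wells of about 50 µL received 100 nL stock; 0% = vehicle wells and 100% = reference inhibitor wells; whole bacteria with a GFP reporter of the hypoxia response; strong numbers were not always called active; many hits fall short of the cut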
# Mtb hypoxia inh growth: recorded beside Mtb hypoxia inh, whose call it bears; growth inhibition, %; measured here: M. tuberculosis growth (absorbance);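 0% = vehicle and 100% = reference antibiotic; read after six days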
# The depositor's hits bear a star; nt = no result given.
SMILES	BJeLR viability	Autofluor counter	Sa ugtP lethal	PrP UTR inh	Sa RN4220 lethal	Mtb hypoxia inh	Mtb hypoxia inh growth
C[C@H](NC(=O)c1nc[nH]c1C(=O)N[C@@H](Cc1ccccc1)C(=O)OC(C)(C)C)C(=O)OC(C)(C)C	2	3191	nt	-17	nt	nt	nt
CCN(CC)S(=O)(=O)c1ccc(NC(=O)CSc2ncnc3ccccc23)cc1	-1	2345	-6	-3	5.5	nt	nt
O=C(CN(C(=O)CSc1nnc(COc2ccccc2)o1)c1ccc(F)cc1)NC1CCCCC1	-1	12171	2	-35	4.5	5	4
COc1ccc(C2=NOC(C(=O)NCc3cccnc3)C2)cc1OC (centres undefined)	0	3931	4	-20	1.3	4	-3
O=C(CN1CCCCC1)c1ccc(F)cc1	12	4832	-4	-35	1.8	6	-4
Cn1ncc(C(=O)Nc2ccc(Cl)cc2)c1C(F)(F)F	6	5952	4	-18	-3.2	12	-7
C=C(C)C(=O)OCC(=O)NCc1ccccc1	4	3115	-4	-6	5.6	2	2
COc1ccccc1CCNC(=O)CSc1ccc(-c2cccs2)nn1	8	3271	10	7	3.0	12	4
CC1CN(C(C)CO)C(=O)c2cc(NC(=O)Nc3ccc(C(F)(F)F)cc3)ccc2OC1CN(C)C(=O)Nc1ccc(C(F)(F)F)cc1 (centres undefined)	nt	nt	-23	nt	-11	14	6
CC1CCN(c2cc(C#N)c(C#N)cc2[N+](=O)[O-])CC1	5	23005*	1	-44	1.1	-2	6
O=P(O)(CCc1ccccn1)CN1CCCCC1	0	9255	9	-20	2.8	4	7
Cc1ccc(C)c(N2CCN(S(=O)(=O)c3csc(C(N)=O)c3)CC2)c1	-6	6783	-6	-27	3.3	2	-1
Cc1cc(Br)ccc1NC(=O)c1sc2ncnc(N3CCN(c4ccccn4)CC3)c2c1C	-9	5505	-1	-16	0.5	4	13
O=C(CCC(F)(F)F)N1CCC(CO)(CCc2ccccc2)CC1	-6	3819	5	-20	2.0	3	-11
Cc1nn(-c2cc(C)c3ccccc3n2)c2c1CCC2	3	20384*	3	-25	3.4	0	9
CCOC(=O)c1ccc(NC(=S)N2CCN(CCN=CC3=C(O)CC(c4ccccc4)CC3=O)CC2)cc1 (centres undefined)	-11	5395	-2	nt	6.2	8	-1
CCC1CCCCN1Cc1c(O)ccc2c(=O)c(-c3ccccc3OC)coc12 (centres undefined)	-5	3907	1	-12	1.9	8	9
O=C(NCc1ccc(Cl)cc1)C1C2C=CC3(CN(Cc4cccnc4)C(=O)C13)O2 (centres undefined)	-2	25239*	9	-14	4.8	4	1
COCCn1c(N)c(N(Cc2ccccc2)C(=O)c2ccc(-c3ccc(Cl)cc3)o2)c(=O)[nH]c1=O	8	5437	-4	-20	-6.0	-1	-10
CC(C)(C)Sc1ccc(/C=N/O)cc1[N+](=O)[O-]	1	3282	nt	9	nt	nt	nt
CCOC(=O)Cn1cnc2scc(-c3ccc(C)c(C)c3)c2c1=O	5	4246	2	-20	0.9	7	17
COc1ccc(C(=O)OCC(=O)C(C)(C)C)cc1S(=O)(=O)N(C)CCc1cccnc1	10	5008	6	-20	2.4	-7	4
Cc1cc2oc(C(=O)NC3CCS(=O)(=O)C3)cc(=O)c2cc1C (centres undefined)	1	4963	5	-13	4.0	8	7
COc1ccc(S(=O)(=O)NN=C(C)c2ccco2)cc1	nt	nt	-6	nt	0.8	2	4
O=C(Nc1cccc2oc(=O)ccc12)c1ccc([N+](=O)[O-])cc1[N+](=O)[O-]	-9	2076	57	-3	46	18	15
Cc1ccc(-c2nnc(-c3ccc(NC(=O)Cc4cccs4)cc3)o2)cc1	2	7936	7	-11	3.3	0	-2
CCOc1cccc2cc(-c3csc(NC(=O)CCC(=O)NCCN4CCCCC4C)n3)c(=O)oc12 (centres undefined)	-29	4086	6	-88	0.0	6	15
CC(CC(=O)Nc1ccc(Cl)c(Cl)c1)=NNC(=O)C(=O)N1CCCCC1	nt	nt	-6	nt	0.0	-3	2
Cc1ccc2c(c1)CC1(CN2C)C(=O)NC(=O)N(c2cc(C)ccc2C)C1=O (centres undefined)	-3	22449*	3	-14	3.0	4	7
Cc1ccc(OCc2ccc(C(=O)Nc3c(C)nn(Cc4c(F)c(F)c(F)c(F)c4F)c3C)o2)c([N+](=O)[O-])c1	2	23883*	-17	-18	9.1	7	14
CCOC(=O)C(C)Sc1ccc2nnc(CCNS(=O)(=O)c3ccc(C)cc3)n2n1 (centres undefined)	4	4385	8	-7	0.2	5	4
O=C(CCN1CCN(c2ccccn2)CC1)Nc1ccc(F)cc1	-8	2840	-1	-32	1.1	nt	nt
CCOC(=O)Nc1ccc2c(c1)N(C(=O)CCN(C)C)c1ccccc1S2	-4	5971	-2	-34	5.7	4	9
Cc1nn(C)c(C)c1C(C)NC(=O)c1cc(COc2ccc(F)c(F)c2)on1 (centres undefined)	-3	6049	8	-28	3.7	8	2
CCOc1ccc(S(=O)(=O)N2CCN(C(=S)NCC3CCCO3)CC2)cc1 (centres undefined)	-3	4973	-1	-15	4.2	1	3
COc1ccc(OC)c(-n2c(CN3CCC(C(N)=O)CC3)nc3ccccc3c2=O)c1	nt	11220	0	-4	2.0	4	0
CCCCn1c(=O)[nH]c(=O)c2c1nc(CN(C)Cc1cccc(OC)c1OC)n2CCC	-4	3498	2	5	-0.1	-8	6
CN=C1S/C(=C\c2ccc(Cl)cc2)C(=O)N1C	11	3626	-1	-26	7.6	5	-1
CN1CCN(S(=O)(=O)c2ccc3c(c2)C(C)(C)C(=O)N3C)CC1	-1	5093	-8	-45	-5.1	10	9
COc1cccc(NC(=O)CNC(=O)[C@@H]2Cc3ccccc3CN2C(=O)OC(C)(C)C)c1	3	6063	12	-8	4.4	3	-8
O=C(COc1ccccc1)N/N=C/c1ccc2c(c1)OCO2	3	3758	nt	-18	nt	nt	nt
c1ccc(NCc2cccnc2)cc1	nt	2856	-2	-59	-4.3	9	14
C=CCNc1ccc(C(=O)O)cc1	6	2101	6	3	7.2	0	1
Cc1nn2c(N3CCOCC3)c3c(nc2c1-c1ccccc1)CCCC3	-10	4253	4	-13	2.2	2	10
COc1ccc(Nc2ncnc3c2c(C)c(C)n3CCO)cc1	3	3746	13	-63	3.5	4	1
Cc1nnc(SCC2=C(C(=O)O)N3C(=O)C(NC(=O)COc4ccc(F)cc4)C3SC2)s1 (centres undefined)	nt	2922	97*	5	100*	nt	nt
CC1(c2ccccc2)NC(=O)N(CC(=O)Nc2cc(Cl)ccc2N2CCOCC2)C1=O (centres undefined)	5	nt	-3	-7	-0.3	2	-2
Cc1cccc(N2CC(O)(c3cccs3)[N+]3=C2CCCC3)c1 (centres undefined)	5	4064	2	-7	2.7	11	12
CCCCNC(=O)Cn1nc(Cc2ccncc2)c2ccccc2c1=O	3	3346	10	-24	8.5	16	9
O=C(CN1CCC(C(=O)c2ccc3c(c2)OCCO3)CC1)NCc1ccc(F)cc1	8	4839	-3	-15	2.6	4	2
COc1ccccc1CN1CN(S(=O)(=O)c2ccccc2)c2nc3ccccc3nc21	-2	5002	0	-23	-1.1	6	2
c1cncc(-c2nnc(SCc3cccc4ccccc34)o2)c1	7	5972	-17	-16	1.8	10	11
Cc1ccc(S(=O)(=O)N2CCC(C(N)=O)CC2)cc1C(=O)NC1CCCCC1	-6	4504	5	-20	2.7	11	1
CCOc1ccc(/C=N/n2nnnc2N)cc1OCC	2	4229	nt	-2	nt	nt	nt
COc1cc(NC(=O)c2cccc(C)c2)c(OC)cc1NC(=O)CN1CCOCC1	4	3408	-4	7	5.8	-1	5
O=C(N=C1SC2CS(=O)(=O)CC2N1c1ccccc1F)C1CCCCC1 (centres undefined)	5	4989	4	0	2.4	5	1

# The list continues:
SMILES	BJeLR viability	Autofluor counter	Sa ugtP lethal	PrP UTR inh	Sa RN4220 lethal	Mtb hypoxia inh	Mtb hypoxia inh growth
Cc1nn(C)c(C(=O)NN)c1Cl	3	3511	-2	-14	5.9	10	4
CC(=O)Nc1ccc(-c2cc(N)n(-c3ccccc3)n2)cc1	6	3607	5	-41	3.6	-8	-3
CCOc1ccc(Cc2nnc(SCC(=O)Nc3c(C)cccc3C)[nH]c2=O)cc1	-2	3968	6	-15	0.3	-1	-5
CCN1C[C@]2(CO)CC[C@H](OC)[C@@]34C5C[C@H]6[C@H](OC)C5[C@](O)(C[C@H]6OC)[C@@](O)(C(OC)C23)[C@@H]14 (some centres undefined)	2	5105	1	-29	5.5	nt	nt
FC(F)C(F)(F)C(F)(F)C(F)(F)c1cc(-c2ccccc2)n[nH]1	-29	11401	-12	-18	17	13	12
CCOc1ccc(N2C(=O)C(CC(=O)Nc3ccccc3)N(Cc3ccccn3)C2=S)cc1 (centres undefined)	-10	4237	5	4	-3.4	-8	-3
COc1ccc(C(C(=O)NCC2CCCO2)N(C(=O)CNC(=O)c2cccs2)c2ccccc2)cc1OC (centres undefined)	1	2597	-4	-23	5.9	10	11
COCCOC(=O)c1c(C)oc2ccc(OC(=O)c3ccc4c(c3)OCO4)cc12	7	4752	43	-3	2.4	4	8
Cc1c(Cl)cccc1NC(=S)NC1CCCC1	0	3461	10	-16	-3.7	2	4
O=C1CCCN1c1ccc(S(=O)(=O)Nc2cccnc2)cc1	-9	4313	2	-19	3.3	9	2
Cc1cccc(-n2c(SCC(=O)Nc3nnc(C)s3)nnc2-c2ccoc2C)c1	0	3752	0	-17	6.4	nt	nt
CCOC(=O)c1c(NC(=O)CSc2nnc(-c3ccccc3)n2CC)sc(C(C)=O)c1C	-1	5971	-13	-27	3.3	0	4
CCN(CC(=O)NCc1ccc(F)cc1)C(=O)c1ccc(C(=O)c2ccccc2)cc1	0	3778	0	-21	0.1	10	1
CN1CCCC1CCNc1ccc2c(=O)c3ccccc3oc2c1 (centres undefined)	-9	3686	-5	-54	2.5	7	8
COc1ccc(C(=O)NCc2nnc(SCC(=O)N3CCc4ccccc43)n2Cc2ccccc2)cc1	-23	2491	9	-8	3.4	5	8
NS(=O)(=O)c1ccc(NC(=O)c2ccc(S(=O)(=O)N3CCCCCC3)cc2)cc1	nt	3632	1	-17	7.1	16	10
CCCCC[C@H](O)/C=C/C1C(=O)C=C[C@H]1C/C=C\CCCC(=O)OC (some centres undefined)	nt	3505	-2	18	4.9	-4	2
COc1ccccc1NC(=O)Nc1nc(CC(=O)Nc2cccc(F)c2)cs1	6	4079	-18	2	1.5	0	-1
O=c1c(-c2ccc(Br)cc2)coc2c(CN3CCOCC3)c(O)ccc12	12	2864	-6	-5	3.3	4	9
Cc1ccc(/C=N/n2c(C)cc(C)c(C#N)c2=O)o1	-20	2118	nt	-54	nt	nt	nt
Cc1cc(O)c(/C=N/Nc2ccc(F)cc2)c(=O)o1	-5	3777	nt	-24	nt	nt	nt
CCN1CCCC1CNC(=O)c1ccc(CS(=O)(=O)c2ccccc2C)o1 (centres undefined)	14	nt	0	7	2.8	2	13
CC[N+]12CCC(CC1)C(C(O)(c1ccccc1)c1ccccc1)C2 (centres undefined)	4	5386	2	-17	1.8	-2	-3

# One compound at a time (already shown).
# Record of O=c1c(-c2ccc(Br)cc2)coc2c(CN3CCOCC3)c(O)ccc12 : BJeLR viability = 12; Autofluor counter = 2864; Sa ugtP lethal = -6; PrP UTR inh = -5; Sa RN4220 lethal = 3.3; Mtb hypoxia inh = 4; Mtb hypoxia inh growth = 9
# Record of Cc1ccc(/C=N/n2c(C)cc(C)c(C#N)c2=O)o1 : BJeLR viability = -20; Autofluor counter = 2118; Sa ugtP lethal = nt; PrP UTR inh = -54; Sa RN4220 lethal = nt; Mtb hypoxia inh = nt; Mtb hypoxia inh growth = nt
# Record of CC[N+]12CCC(CC1)C(C(O)(c1ccccc1)c1ccccc1)C2 (centres undefined) : BJeLR viability = 4; Autofluor counter = 5386; Sa ugtP lethal = 2; PrP UTR inh = -17; Sa RN4220 lethal = 1.8; Mtb hypoxia inh = -2; Mtb hypoxia inh growth = -3

# Screening data from PubChem.

# Random draw from the library (roughly 4% active in at least one column).
